UUG fidelity: modulators of start codon recognition fidelity in yeast | S. cerevisiae UUG-firefly luciferase reporter, luminescence/redox ratio | 350,000 compounds, 0.13% hits | AID 602363 | activity score, % at 18.7 µM;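 active = replicate mean at a twofold rise or more, about +100% in these data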;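 note: firefly luciferase made from a UUG start codon reports start codon fidelity; reporter light over untreated wells divided by growth signal over untreated wells; some hits fall short of that in this replicate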
HIV Env fusion: HIV envelope-mediated fusion inhibition; AID 651610; inhibition, % at 12.3 µM; 360,000 compounds, 1.1% hits; HeLa-JRFL Env/CEM21 cell fusion, luciferase;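 active = mean replicate inhibition score of at least 50 and every replicate individually at or above 50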;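 note: 0% = plate neutral controls and 100% = maraviroc near 300 nM; one replicate is shown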
eIF4H inh: inhibitors of RNA binding by human eIF4H; Q15056; eIF4H fluorescence polarization binding assay; inhibition, % at 35 µM; 290,000 compounds, 0.94% hits; AID 2012;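 active = 50% or more with normal probe brightness, or confirmed in later tests; about a fifth of its hits are not listed in these tables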;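 note: calls also rest on retests at 20 µM and on dose response follow-up; 0% = protein and probe with vehicle and 100% = probe without protein; strong numbers were not always called active; many hits fall short of the cut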
PABP FP inh: PABP-poly(A) binding inhibition; P11940; PABP-poly(A) RNA binding, fluorescence polarization; inhibition, % at 35 µM; 290,000 compounds, 1% hits;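 active = 50% or more with normal probe brightness, or confirmed in later tests; about a fifth of its hits are not listed in these tables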;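 note: calls also rest on retests at 20 µM and on dose response follow-up; controls were probe without protein and protein plus probe with vehicle; some compounds called inactive have numbers as strong as hits; many hits fall short of the cut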
Target sequence (P11940 whole entry, looked up): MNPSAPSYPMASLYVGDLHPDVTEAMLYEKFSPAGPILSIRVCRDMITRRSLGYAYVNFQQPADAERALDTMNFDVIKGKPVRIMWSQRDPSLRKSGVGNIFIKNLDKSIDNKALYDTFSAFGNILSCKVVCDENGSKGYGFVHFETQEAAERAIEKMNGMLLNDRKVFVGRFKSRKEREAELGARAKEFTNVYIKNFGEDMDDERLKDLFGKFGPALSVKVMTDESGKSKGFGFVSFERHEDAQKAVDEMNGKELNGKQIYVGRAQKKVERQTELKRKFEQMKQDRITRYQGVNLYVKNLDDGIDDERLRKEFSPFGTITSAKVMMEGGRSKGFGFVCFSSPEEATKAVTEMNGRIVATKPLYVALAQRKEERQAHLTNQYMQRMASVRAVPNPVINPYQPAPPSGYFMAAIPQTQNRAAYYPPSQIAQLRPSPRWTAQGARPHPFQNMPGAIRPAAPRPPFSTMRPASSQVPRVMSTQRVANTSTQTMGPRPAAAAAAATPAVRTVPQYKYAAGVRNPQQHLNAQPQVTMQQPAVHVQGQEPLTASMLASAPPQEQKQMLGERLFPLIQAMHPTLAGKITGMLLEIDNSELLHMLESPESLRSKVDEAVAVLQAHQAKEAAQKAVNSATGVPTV
Rce1 inhib: inhibitors of yeast Ras-converting enzyme. 290,000 compounds, 0.27% hits. calls only. yeast membranes, quenched prenylated peptide cleavage fluorescence. AID 2563;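 active = fall in fluorescence gain of 50% or more versus controls, with final raw signal at or below 3038400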;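 note: plate controls were neutral control wells for no effect and wells lacking membranes for full effect; tested at 10 µM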
MT1-MMP act inh: blocks activation of human MT1-MMP. AID 651647. HT1080 RFP-PRO-GFP cells, GFP/RFP ratio fluorescence, overnight; percent of plate control window, DMSO zero. GFP/RFP ratio change, % at 20 µM. 360,000 compounds, 0.061% hits. P50281;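 active = GFP/RFP ratio change of at least 30% with cell ATP level not reduced by more than half and red fluorescence within 50% of control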; note: strong numbers were not always called active
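Test system: HT1080 cells expressing an RFP-PRO-GFP fluorescent reporter construct / Compound dosing: single-point 20 µM compound, 1% DMSO / Schedule: cells overnight before dosing, compound overnight, 37 °C, 5% CO2 / Evaluation: GFP/RFP fluorescence ratio / Control set: DMSO and RFP-L50D-GFP cell wells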
CSC inhib: blocks cancer stem cells | cancer stem cell-like cells viability, luminescence | inhibition, % at 7.5 µM | 300,000 compounds, 1.1% hits | AID 2717;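 active = mean at 75% or more and at least half the replicates too; tested in HMLE shEcad cells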;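 note: 0% = median of negative and 100% = median of positive control wells; the first replicate is given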
MT1-MMP act inh RFP: also measured in MT1-MMP act inh; calls as there; RFP signal change, %; measured here: RFP expression control read;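 0 = vehicle wells; hits needed this value within 50% of zero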
* hit, by the source's call; i = inactive; . = not tested or not shown.

The line under a structure holds: UUG fidelity	HIV Env fusion	eIF4H inh	PABP FP inh	Rce1 inhib	MT1-MMP act inh	MT1-MMP act inh RFP	CSC inhib
> CC(C)NCC(O)COc1ccc(CC(N)=O)cc1 (stereo unspecified)
→ -16	.	-4	40	i	4	8	-2
> Cc1ccnc2nc(C(=O)Nc3ccc(N4CCOCC4)cc3)nn12
→ .	.	5	12	i	11	-1	-13
> CC1=CC(C)(C)N(C(=O)CCl)c2cc(C)ccc21
→ -4	-22	-2	0	i	-7	-1	-4
> O=C(COCc1cc(-c2ccc3c(c2)OCO3)on1)N1CCN(c2ccc(F)cc2)CC1
→ 11	11	-4	-8	i	-3	-3	26
> CC(=O)Nc1ccc2nc(NC(=O)CCc3ccccc3)sc2c1
→ .	2	8	8	i	4	1	-12
> COc1ccc(-n2nnnc2SC(C)C(=O)NCC(=O)Nc2ccc(F)c(F)c2F)cc1 (stereo unspecified)
→ .	6	-4	-15	i	-4	-4	1
> C/C(CC(=O)Nc1cccc(Br)c1)=N\NC(=O)c1ccc(O)cc1O
→ 0	-2	9	49	i	-1	0	6
> CCO/C=N/Nc1nc(C(F)(F)F)nc2c1cnn2Cc1ccccc1
→ -26	-3	-8	5	i	-4	-5	29
> CCn1c(SCc2nc3ccccc3c(=O)[nH]2)nnc1-c1cccnc1
→ -18	-17	7	5	i	0	5	-24
> COC(=O)c1ccc(Cn2nnc3c(=O)[nH]c(C4CCCN(S(=O)(=O)c5ccccc5Cl)C4)nc32)cc1 (stereo unspecified)
→ 3	15	-4	0	i	-3	-2	-10
> CC(=O)c1c(C)[nH]c(C(=O)Nc2cccc(C(F)(F)F)c2)c1C
→ -5	-12	-1	10	i	-2	-9	19
> CCc1csc(CCNC(=O)C2CCC(=O)N(Cc3ccccc3F)C2)n1 (stereo unspecified)
→ 2	14	-5	-9	i	-4	2	-6
> C=CCn1c(SCC(=O)N2CCCC2)nc2cc(C(=O)NCC3CCCO3)ccc2c1=O (stereo unspecified)
→ -17	8	9	2	i	0	2	-7
> COc1ccc(NC(=O)NCCN2C(=O)C3C4C=CC(C4)C3C2=O)cc1 (stereo unspecified)
→ -14	1	-17	-14	i	3	2	.
> COc1cccc(-c2nc(SC)nc3sc(C(=O)NC(C)(C)C)c(N)c23)c1
→ -16	21	.	.	i	-4	-1	32
> C=CCN=C1N[C@@H](c2ccccc2)C(C(=O)OC)=C(C)N1CC
→ -5	.	.	.	i	-1	5	15
> COc1ccc(SC[C@H](Cc2ccccc2)N2CCN(CCc3ccccc3)CCC2=O)cc1
→ -6	.	4	4	i	3	-5	9
> COc1ccccc1N1CCN(Cc2ccsc2)CC1
→ 1	-12	2	28	i	-5	0	1
> CC(C)c1ccccc1NC1=CC(=O)CC(C)(C)C1
→ -10	14	-5	-28	i	5	5	8
> CCOCC(=O)Nc1nnc(Cc2ccc(OC)c(OC)c2)s1
→ -21	6	0	6	i	4	5	5
> CCN(CC)C(=O)N1CCN(S(=O)(=O)c2c(C)cc(C)cc2C)CC1
→ 1	22	-2	-9	i	6	-6	-18
> O=C(c1ccccc1)c1cn[nH]c1-c1ccccc1O
→ -9	.	-1	0	i	4	3	-17
> COCCNC(=O)c1ccccc1NC(=O)C1COc2ccccc2O1 (stereo unspecified)
→ 4	-8	-14	0	i	1	0	5
> O=[N+]([O-])c1ccc2c(c1N1CCCCC1)=NC1(CCCCC1)[N+]=2[O-]
→ .	5	4	16	i	0	-2	-10
> COc1ccc(S(=O)(=O)Nc2cc3c4c(c2)CCN4C(=O)CC3)cc1C
→ .	.	.	.	i	4	1	3
> CC(C)C1N=C2c3ccccc3N=C(SCc3cc(=O)n4cc(Cl)ccc4n3)N2C1=O (stereo unspecified)
→ 0	-20	-14	-15	i	-2	-2	-4
> O=c1c2c3nc4ccccc4nc3n(/N=C/c3ccncc3)c2ncn1-c1ccccc1
→ -16	.	1	12	i	3	3	-6
> CCc1ccc(C2C(C#N)=C(N)Oc3n[nH]c(CC(=O)OC)c32)cc1 (stereo unspecified)
→ -17	.	7	0	i	5	5	2
> COc1ccc(OC)c(NC(=O)c2nnn(CCc3ccccc3)c2N)c1
→ -6	7	-3	14	i	-3	1	-19
> CC(Oc1ccccc1)C(=O)N1CCN(c2ccc(N3CCOCC3)nn2)CC1 (stereo unspecified)
→ -15	-20	.	.	i	4	0	-17
> CN(CCN1CCc2ccccc2C1)Cc1nc(-c2ccc3c(c2)OCO3)no1
→ -22	18	-7	1	i	0	2	3
> CCn1c(O)c(/C=C2\C=Nc3ccccc32)sc1=O
→ 1	-72	2	-5	i	1	4	5
> CN1CCN(C2=Cc3ccccc3Sc3cc(F)c(Cl)cc32)CC1
→ -5	-12	1	-7	i	-14	-16	40
> CCCNC(=O)c1ccc(-c2nc3ccccc3s2)s1
→ .	.	2	-2	i	7	2	60
> CNC(=S)N/N=C/C1=CCC2CC1C2(C)C (stereo unspecified)
→ .	.	-4	-3	i	7	4	-16
> CCOc1ncccc1C(=O)OCC(=O)Nc1ncc(C(F)(F)F)cc1Cl
→ -18	.	-5	8	i	4	9	-7
> Cc1cc(C)nc(NS(=O)(=O)c2ccc(NC(=O)c3snnc3C)cc2)n1
→ -13	5	-9	0	i	2	1	6
> CC1Cc2ccccc2N1C(=O)CCn1c(=O)oc2ccccc21 (stereo unspecified)
→ -4	-3	-3	0	i	-10	-8	2
> Cc1cc(C)c(S(=O)(=O)N2CCOCC2)cc1NS(=O)(=O)c1cc(OCC(N)=O)c(C)cc1Cl
→ .	-1	2	5	i	-1	0	-5
> CCCOn1nnnc1-c1ccccc1
→ .	.	-3	2	i	0	7	1
> CCOc1[nH]n(-c2ccccc2)c(=O)c1C=Nc1ccc(Cl)cc1
→ -7	24	-7	3	i	7	1	11
> CCc1cc(C(=O)N2CCc3c([nH]c4ccccc34)C2c2ccc(OC)cc2F)no1 (stereo unspecified)
→ .	-4	-11	-6	i	-10	-9	-25
> COc1cc([N+](=O)[O-])ccc1NC(=O)CC(C)C
→ .	1	0	5	i	2	2	-5
> CCc1ccc(NS(=O)(=O)c2ccc3c(c2)CCN3C(=O)CCC(=O)O)cc1
→ -13	10	-6	-2	i	0	-3	-5
> CC(=O)Nc1ccc(S(=O)(=O)N2CCN(Cc3ccccc3[N+](=O)[O-])CC2)cc1
→ .	15	3	13	i	-3	-11	-2
> COc1cc(/C=N/NC(=O)c2cc(-c3ccccc3)sc2N)cc(OC)c1OC
→ .	35	-3	-15	i	.	.	42
> Cc1cccc(Nc2nc3c(c(=O)n(C)c(=O)n3C)n2Cc2ccccc2)c1
→ .	.	0	-2	i	-2	-3	.
> C=CCSc1nc(N)c2c(C)c(C)sc2n1
→ -20	-101	-18	-2	i	6	6	20
> N#Cc1ccccc1S(=O)(=O)N1CCN(CC(O)CN2CCOCC2)CC1 (stereo unspecified)
→ -20	-6	.	.	.	1	0	.
> COc1ccc(OC)c(C(=O)c2coc3ccc(OC(C)=O)cc23)c1
→ -2	-10	0	-3	i	10	6	-20

(further entries)
The line under a structure holds: UUG fidelity	HIV Env fusion	eIF4H inh	PABP FP inh	Rce1 inhib	MT1-MMP act inh	MT1-MMP act inh RFP	CSC inhib
> COCCNC(=O)C(=O)NCCN1CCNCC1
→ .	-1	0	5	i	-1	6	8
> CCOC(=O)C1=C(N)N(c2ccccc2Oc2ccccc2)C(=O)C1
→ -6	.	-1	3	i	1	2	-13
> O=C(Nc1ccc(F)cc1F)c1csc(-c2ccncc2)n1
→ .	-4	-5	-2	i	3	-1	-11
> CCOC(=O)c1c(-c2ccc(C)o2)csc1NC(=S)NC(=O)c1ccccc1Br
→ -21	24	-2	7	i	-2	-1	35
> CC(=O)Nc1ccc(NC(=O)CSc2ccc(C(F)(F)F)cc2[N+](=O)[O-])cc1
→ .	3	5	18	i	3	8	5
> CC(C)(O)C#Cc1ccc(C(=O)Nc2ccc3c(c2)OCO3)s1
→ -21	-66	-1	4	i	2	1	50
> CCOC(=O)N1CCC(n2c(SCC(=O)NCCc3ccc(S(N)(=O)=O)cc3)nc3ccccc3c2=O)CC1
→ .	42	-2	-6	i	1	6	-7
> COc1ccc(NC(=O)COC(=O)c2cnccn2)cc1Cl
→ -5	-130	-5	-9	i	-2	3	9
> COc1ccc(-c2c(C)n([O-])c(C)c(C)[n+]2=O)cc1
→ -7	.	6	0	i	4	2	-23
> O=C(COC(=O)c1ccc(Cl)nc1)NCCNC(=O)COC(=O)c1ccc(Cl)nc1
→ -13	-6	.	.	.	4	-1	-12

2 entries from above, reformatted.
| Molecule | UUG fidelity | HIV Env fusion | eIF4H inh | PABP FP inh | Rce1 inhib | MT1-MMP act inh | MT1-MMP act inh RFP | CSC inhib |
| --- | --- | --- | --- | --- | --- | --- | --- | --- |
| CC(C)c1ccccc1NC1=CC(=O)CC(C)(C)C1 | -10 | 14 | -5 | -28 | i | 5 | 5 | 8 |
| COc1ccc(NC(=O)COC(=O)c2cnccn2)cc1Cl | -5 | -130 | -5 | -9 | i | -2 | 3 | 9 |

Other entries:
The line under a structure holds: UUG fidelity	HIV Env fusion	eIF4H inh	PABP FP inh	Rce1 inhib	MT1-MMP act inh	MT1-MMP act inh RFP	CSC inhib
> COc1cccc(N2CCN(C(=O)CCc3nnc4ccc(N5CCCC5)nn34)CC2)c1
→ -22	6	6	0	i	0	0	0
> COc1ccc(Oc2cnn(-c3ccccc3)c(=O)c2Br)cc1
→ .	-8	-2	-6	.	-1	1	-4
> CCOC(=O)C1(Cc2cccc(Cl)c2)CCCN(C(=O)CN2C(=O)CSC2=O)C1 (stereo unspecified)
→ -1	5	-3	10	i	1	-2	1
> O=C(Nc1cccc(F)c1)C1CCCN1C(=O)OCc1ccccc1 (stereo unspecified)
→ -24	7	-4	-10	i	-1	-1	4
> Cc1ccc(OCCNCc2ccccc2)c(C)c1
→ -4	2	11	-1	.	1	2	-14
> CC1(Oc2cccc(F)c2)CCN(Cc2ccc3ccccc3c2)C1 (stereo unspecified)
→ -13	29	.	.	.	-2	6	.
> CC(C)(C)OC(=O)N[C@H]1C=C[C@H](OC(=O)CC(=O)OCC(F)(F)F)C1
→ -5	18	.	.	.	1	4	.
> O=C(CSc1nnnn1-c1ccc2c(c1)OCO2)NCc1cccs1
→ -3	.	1	6	i	2	4	-3
> Cc1cc(C)cc(NC(=O)c2ccc3nc[nH]c3c2)c1
→ .	-2	1	-5	i	7	7	-1
> COc1cccc(NC(=O)CSc2nc(=O)n(Cc3ccncc3)c3c2CCCC3)c1
→ -19	5	.	.	i	0	-1	-9
> CC1=NNC(=O)/C1=C\c1cn(-c2ccccc2)nc1-c1ccc(F)cc1
→ -13	.	0	-12	i	-43	-39	.
> CC(C)(C)NC(=O)C1CCC(CNc2c(N3CCCCC3)c(=O)c2=O)CC1 (stereo unspecified)
→ 4	-2	-7	-7	i	-5	0	-16
> O=C(NCCc1ccccc1)C1CCN(S(=O)(=O)c2ccc(Br)s2)CC1
→ 3	-8	-14	-11	i	1	-5	-3
> c1ccc(-c2csc3ncnc(NCC4COc5ccccc5O4)c23)cc1 (stereo unspecified)
→ .	51	-3	5	i	-14	-27	50
> O=c1cc(N2CCc3ccccc32)[nH]c(=O)n1-c1ccccc1
→ -9	.	-6	-6	i	0	7	-19
> CCCCN(C(=O)CCn1c(=O)oc2ccccc21)c1ccccc1
→ -3	6	-5	-2	i	-3	1	-7
> O=C(c1ccc(N2CCCC2=O)cc1)N1CCN(c2cccc(C(F)(F)F)c2)CC1
→ 14	10	.	.	.	3	0	.
> CCCCOc1ccc(C(=O)N2CCN(CC(=O)Nc3ccc(C)cc3)CC2)cc1OC
→ -17	7	-9	18	i	-2	-14	-6
> Cc1ccc(-n2c(CCc3ccccc3)nnc2SCC(=O)NCc2ccccc2)cc1C
→ -28	-127	-1	-4	i	-3	-8	-2
> Cc1ccc(S(=O)(=O)N2CCCC(N3CCOCC3)C2)cc1Cl (stereo unspecified)
→ -13	-4	0	-2	i	-1	1	-12
> O=C(Nc1nccs1)c1cc2c(s1)-c1ccccc1OC2
→ -1	-124	-4	4	i	-7	-8	6
